Marburg entry inh = blocks Marburg virus binding to or entry into cells; Marburg virus pseudotyped entry inhibition, cell reporter; control for the full effect not named in the record; about a third of the inactives were read at about 46 µM; Potency, µM (highest dose often 37.8 µM), for the others: at the highest dose activity change, negative = inhibition, usual class: inhibitors; 300,000 tested, 1.8% active; active = well fitted inhibition curve with a large enough effect; inconclusive = small, poorly fitted or top-dose-only effect, or effect the other way; inactive = flat fitted curve, though single readings scatter; tested in HEK293 cells; about a fifth of its hits are not listed in these tables; further: on the % scale 0 is the no-effect control and ±100 the full control effect; luciferase read-out
Lassa entry inh = inhibitors of Lassa virus binding or cell entry; Potency, µM (top dose mostly 37.9 µM), without a hit: at the highest dose activity change, negative = inhibition, actives largely listed as inhibitors; AID 540256; Lassa virus pseudotype entry inhibition, cell reporter; control for the full effect not named in the record; 300,000 tested, 1.2% active; active means well fitted inhibition curve with a large enough effect; inconclusive means small, poorly fitted or top-dose-only effect, or effect the other way; inactive means flat fitted curve, though single readings scatter; tested in HEK293 cells; further: on the % scale 0 is the no-effect control and ±100 the full control effect; nearly all actives have a fitted effect of over 50% in size; luciferase read-out
SARS PLP yeast = inhibitors of SARS-CoV papain-like protease in yeast. 330,000 tested, 0.19% active. S. cerevisiae expressing SARS-CoV PLpro, growth rescue; control for the full effect not named in the record. Potency, µM (top dose mostly 32.9 µM), for inactives: at the top dose activity, positive = growth rescue. AID 485353; active means well fitted rising curve with a large enough effect; inconclusive means small, poorly fitted or top-dose-only effect; inactive means no such curve, though single readings can be large or run the other way; further: 0% is about no effect; nearly all actives have a fitted effect of over 55% in size; growth read by luminescence after 48 h
Cruzain noTriton = cruzain (T. cruzi) inhibition without detergent; Potency, µM, for the others: max response, negative = inhibition, usual class: inhibitors; 200,000 tested, 2.3% active; P25779; AID 1476; purified cruzain, Z-FR-AMC fluorescence, no detergent;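 further: plate controls were enzyme without inhibitor for no effect and buffer without enzyme for full effect; nearly all actives have a fitted effect of over 40% in size; top concentration of the series not given in the record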
Target sequence (P25779 123-467 limits assumed): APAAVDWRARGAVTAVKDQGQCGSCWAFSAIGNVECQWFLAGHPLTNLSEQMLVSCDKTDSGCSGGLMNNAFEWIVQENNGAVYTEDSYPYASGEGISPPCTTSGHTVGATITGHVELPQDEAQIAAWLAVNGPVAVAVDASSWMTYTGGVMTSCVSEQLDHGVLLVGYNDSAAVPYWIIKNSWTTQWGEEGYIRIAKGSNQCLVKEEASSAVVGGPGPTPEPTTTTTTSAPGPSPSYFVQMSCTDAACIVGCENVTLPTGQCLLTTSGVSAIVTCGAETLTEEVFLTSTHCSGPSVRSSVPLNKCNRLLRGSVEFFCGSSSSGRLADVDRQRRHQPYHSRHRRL
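Purified cruzain at 1.5 nM, pre-incubated 15 min with compound at room temperature in 100 mM sodium acetate pH 5.5, 5 mM DTT, 0.00005% Triton X-100. Reaction started with 2 uM Z-FR-AMC; AMC fluorescence increase over 60 s gives rate.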
Cruzain Triton = cruzain (T. cruzi) inhibition with detergent | P25779 | purified cruzain, Z-FR-AMC fluorescence, 0.01% Triton | Potency, µM, for inactives: max response, negative = inhibition, usual class: inhibitors | 200,000 tested, 0.43% active | AID 1478;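 further: plate controls were neutral wells for no effect and buffer without enzyme for full effect; nearly all actives have a fitted effect of over 40% in size; top concentration of the series not given in the record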
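Compounds were screened in titration against cruzain (1.5 nM) with 0.01% Triton X-100 to counter colloidal aggregation. Activity was the AMC fluorescence increase over 60 s after adding 2 uM Z-FR-AMC at pH 5.5.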
RE007 growth inh = less growth of the S. pombe RE007 Vpr strain; Potency, µM (highest dose often 92.2 µM), for the others: at the top dose activity change, negative = less growth; S. pombe RE007 Vpr strain, BacTiter-Glo ATP luminescence, 24 h; control for the full effect not named in the record; AID 651644; 360,000 tested, 0.21% active; active = well fitted falling curve with a large enough effect; inconclusive = small, poorly fitted or top-dose-only effect; inactive = no such curve, though single readings can be large or run the other way;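 further: on the % scale 0 is the no-effect control and ±100 the full control effect; nearly all actives have a fitted effect of over 50% in size; the assay follows cell death caused by Vpr and the record does not say whether a fall means rescue or toxicity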
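Fission yeast strain RE007, carrying one chromosomally integrated HIV-1 vpr copy, was seeded at OD 0.01 in PMG+AL medium with 23 nL pinned compound. After 24 h at 30 °C and 99% humidity, viability was read by BacTiter-Glo luminescence.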
StopGo reporter = FMDV 2A StopGo reporter, luciferase signal; AID 1159524; 410,000 tested, 1.2% active; Potency, µM (top dose mostly 57.9 µM), for the others: at the highest dose signal change, negative = less light; human cells with a luciferase reporter of 2A StopGo recoding; control for the full effect not named in the record; active = well fitted falling curve with a large enough effect; inconclusive = small, poorly fitted or top-dose-only effect; inactive = no such curve, though single readings can be large or run the other way; tested in HEK293T cells; further: on the % scale 0 is the no-effect control and ±100 the full control effect; nearly all actives have a fitted effect of over 45% in size; luciferase light after 4 h
NS1 inh = influenza NS1 inhibition. S. cerevisiae slowed by influenza A NS1, growth recovery by OD600. Potency, µM (series often up to 46.1 µM), for inactives: at the top dose activity, positive = more growth. 270,000 tested, 0.4% active. AID 2326; active means well fitted rising curve with a large enough effect; inconclusive means small, poorly fitted or top-dose-only effect; inactive means no such curve, though single readings can be large or run the other way; further: nearly all actives have a fitted effect of over 50% in size
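Growth recovery, yeast-based: influenza A NS1 expressed in S. cerevisiae causes slow growth, and suppressors are detected by OD600. The parent strain without NS1 is used as positive control.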
Active calls of the source: *; u = inconclusive; x = no result given; & = joins results of further samples; [ ] = remark or other dose. Unless noted, the call rests on the fitted dose curve; in most records, active means well fitted curve in the direction sought with a large enough effect; inconclusive means small, poorly fitted or top-dose-only effect, or another doubt; inactive means no such curve, though single readings can be large; an effect the other way counts as inactive or inconclusive. Potency means the concentration at half of the fitted maximal effect.

[1] Nc1ncn(C(=O)c2ccco2)n1
[2] CC(C)(CO)NCc1cccc(OCc2ccc(Cl)cc2)c1
[3] Cc1cc(C)cc(OC(=O)CN2C(=O)c3ccccc3C2=O)c1
[4] Cc1cc(C)n(-c2nc3ccccc3nc2N2CCOCC2)n1
[5] COc1ccc(C(C(=O)NCCC(C)C)N(CCN2CCOCC2)C(=O)Cn2nnc3ccccc32)c(OC)c1 (stereo unspecified)
[6] CS(=O)(=O)c1ccc(Cl)c(NC(=O)CCc2ccccc2)c1
assay / entry	1	2	3	4	5	6
Marburg entry inh	24%	u	21%	-4%	-19%[46.1 µM]	20%[46.1 µM]
Lassa entry inh	-5%	u	25%	6%	-11%	-5%
SARS PLP yeast	-5%	-8%	3%	16%	-1%	0%
Cruzain noTriton	3%	-11%	x	-6%	x	x
Cruzain Triton	-2.3%	0.0%	x	-1.6%	x	x
RE007 growth inh	4%	-23%	-18%	0%	-6%	-12%
StopGo reporter	7%	-7%	-7%	-14%	-8%	-5%
NS1 inh	1%	-3%	4%	-4%	0%	x

[7] CN(C(=O)Cn1cc(C(F)(F)F)cc(Cl)c1=O)C1CCS(=O)(=O)C1 (stereo unspecified)
[8] COCCSc1ccccc1C(=O)Nc1nncs1
[9] CC(C)(C)c1ccc(OCC(O)CSc2ncn[nH]2)cc1 (stereo unspecified)
[10] CC(N=c1ccccn1C(=O)Nc1cccc(C(F)(F)F)c1)c1ccco1 (stereo unspecified)
[11] CCC(=O)OCC(=O)Nc1ncc(C(F)(F)F)cc1Cl
[12] CCOC(=O)c1c(-c2cccs2)csc1NC(=O)CCCC(=O)O
assay / entry	7	8	9	10	11	12
Marburg entry inh	u	11%	-29%	-3%	5%[46.1 µM]	2%&7%
Lassa entry inh	10%	3%	u	-24%	24%	0%
SARS PLP yeast	0%	-4%	1%	x	0%	4%
Cruzain noTriton	x	-7%	5%	7%	x	u
Cruzain Triton	x	-1.0%	-4.0%	-3.9%	x	-2.6%
RE007 growth inh	-8%	4%	18%	-10%	-2%	-8%
StopGo reporter	-18%	0%	-49%	15%	-17%	-13%
NS1 inh	x	-1%	-5%	-93%	2%	-82%

Given with two lines to a compound: part of the list above
The line under a structure holds: Marburg entry inh, Lassa entry inh, SARS PLP yeast, Cruzain noTriton, Cruzain Triton, RE007 growth inh, StopGo reporter, NS1 inh
(8) COCCSc1ccccc1C(=O)Nc1nncs1
 : 11%, 3%, -4%, -7%, -1.0%, 4%, 0%, -1%
(9) CC(C)(C)c1ccc(OCC(O)CSc2ncn[nH]2)cc1 (stereo unspecified)
 : -29%, u, 1%, 5%, -4.0%, 18%, -49%, -5%

(further entries)
[13] Cc1nc(N2CCCC2)ncc1C(=O)N1CCN(c2ccccc2F)CC1
[14] O=C(COC(=O)c1ccc(S(=O)(=O)NCc2ccco2)cc1)c1ccccc1
[15] COc1cc(C2c3c(oc4cc(C)c(C)cc4c3=O)C(=O)N2c2cc(C)ccn2)ccc1O (stereo unspecified)
[16] CCc1cccc(C)c1NC(=O)Cn1cnc2c1c(=O)n(C)c(=O)n2C
[17] N/C(=N\OC(=O)c1cccc(Br)c1)c1ccncc1
[18] COc1ccc(CN(CCCN2CCOCC2)C(=O)Nc2ccccc2)cc1OC
assay / entry	13	14	15	16	17	18
Marburg entry inh	x	u	8%	x	-19%[46.1 µM]	5%
Lassa entry inh	20%[46.1 µM]	13%	-4%	7%[46.1 µM]	19%	u
SARS PLP yeast	x	11%	-3%	x	3%	4%
Cruzain noTriton	4%	-5%	u	-3%	x	1%
Cruzain Triton	0.1%	-7.1%	-1.5%	-5.1%	x	0.5%
RE007 growth inh	x	-10%	-9%	x	3%	-12%
StopGo reporter	-11%	22%	-15%	-16%	30%	14%
NS1 inh	x	-2%	-11%	x	-6%	-3%

Given as a markdown table: entries from further up
| nr | SMILES | Marburg entry inh | Lassa entry inh | SARS PLP yeast | Cruzain noTriton | Cruzain Triton | RE007 growth inh | StopGo reporter | NS1 inh |
| --- | --- | --- | --- | --- | --- | --- | --- | --- | --- |
| 13 | Cc1nc(N2CCCC2)ncc1C(=O)N1CCN(c2ccccc2F)CC1 | x | 20%[46.1 µM] | x | 4% | 0.1% | x | -11% | x |
| 14 | O=C(COC(=O)c1ccc(S(=O)(=O)NCc2ccco2)cc1)c1ccccc1 | u | 13% | 11% | -5% | -7.1% | -10% | 22% | -2% |

(list continues)
[19] CCc1ccc(NC(=O)C(=O)NNC(=O)COc2cccc(OC)c2)cc1
[20] CCOC(=O)c1c(C)[nH]c(C)c1S(=O)(=O)N(C)CC(=O)Nc1cccc(C)n1
[21] COc1ccc(C(=O)c2oc3ccc(OC)cc3c2N)cc1
[22] CCOc1ccccc1NC(=O)CN1C(=O)C2(SCC(=O)N2c2cccc(F)c2)c2ccccc21 (stereo unspecified)
[23] COCC(=O)N(Cc1cc2ccccc2[nH]c1=O)c1ccccc1OC
[24] COCCCN1C2=C(C(=O)CC(C)(C)C2)C(c2ccc(O)c(OC)c2)C2=C1CC(C)(C)CC2=O
assay / entry	19	20	21	22	23	24
Marburg entry inh	0%	x	19%	x	-1%	4%
Lassa entry inh	u	x	-20%	-3%[46.1 µM]	-1%	19%
SARS PLP yeast	2%	5%	-24%	x	5%	2%
Cruzain noTriton	-15%	x	-2%	-10%	-2%	x
Cruzain Triton	-1.4%	x	-9.0%	-1.8%	-1.0%	x
RE007 growth inh	u	-9%	-3%	x	3%	-11%
StopGo reporter	-14%	-8%	74%[activator]	-27%	-5%	-15%
NS1 inh	-16%	8%	-16%	x	4%	17%

[25] NS(=O)(=O)c1ccc(N/C=C\C(=O)c2ccc(F)cc2)cc1
[26] COc1cc(OC)cc(C(=O)Nc2ccc(S(=O)(=O)Nc3cnc4ccccc4n3)cc2)c1
[27] Cc1ccc(Nc2c(-c3ccc(C)s3)nc3ncccn23)cc1
[28] O=C(CSc1ccc(S(=O)(=O)N2CCCC2)cn1)Nc1ccc([N+](=O)[O-])cc1C(F)(F)F
[29] COc1ccc(/C=C/C(=O)NCC(=O)N/N=C(/C)c2ccco2)cc1
[30] Cc1ccc(NC(=O)Cn2c(=O)n(Cc3ccccc3)c(=O)c3c(C)c(C(=O)N(C)C)sc32)c(C)c1
[31] CCOc1ccccc1NC(=S)N1CCC(c2nc3ccccc3o2)CC1
assay / entry	25	26	27	28	29	30	31
Marburg entry inh	u	-5%	u	u	2%[46.1 µM]	x	5%
Lassa entry inh	-11%	-2%	4%[46.1 µM]	-25%	9%[46.1 µM]	18%[46.1 µM]	-2%
SARS PLP yeast	0%	x	x	x	-2%	x	23%
Cruzain noTriton	x	x	-1%	x	x	u	-12%
Cruzain Triton	x	x	-12%	x	x	0.5%	-4.1%
RE007 growth inh	-21%	-2%	x	-1%	-9%	x	-9%
StopGo reporter	40%[activator]	80%[activator]	44%[activator]	u	1%	-11%	-12%
NS1 inh	-1%	x	x	x	-1%	x	8%

Five structures out of the list, ordered by number of heavy atoms, low to high.
[25] NS(=O)(=O)c1ccc(N/C=C\C(=O)c2ccc(F)cc2)cc1
[27] Cc1ccc(Nc2c(-c3ccc(C)s3)nc3ncccn23)cc1
[29] COc1ccc(/C=C/C(=O)NCC(=O)N/N=C(/C)c2ccco2)cc1
[28] O=C(CSc1ccc(S(=O)(=O)N2CCCC2)cn1)Nc1ccc([N+](=O)[O-])cc1C(F)(F)F
[30] Cc1ccc(NC(=O)Cn2c(=O)n(Cc3ccccc3)c(=O)c3c(C)c(C(=O)N(C)C)sc32)c(C)c1
assay / entry	25	27	29	28	30
Marburg entry inh	u	u	2%[46.1 µM]	u	x
Lassa entry inh	-11%	4%[46.1 µM]	9%[46.1 µM]	-25%	18%[46.1 µM]
SARS PLP yeast	0%	x	-2%	x	x
Cruzain noTriton	x	-1%	x	x	u
Cruzain Triton	x	-12%	x	x	0.5%
RE007 growth inh	-21%	x	-9%	-1%	x
StopGo reporter	40%[activator]	44%[activator]	1%	u	-11%
NS1 inh	-1%	x	-1%	x	x

Source: PubChem
